B2AR ag – beta2AR agonists driving receptor internalization, primary screen, cell-based, FAP fluorogen, flow cytometry; Beta-2 adrenergic receptor (Homo sapiens), P07550; Am2.2-beta2AR cells; reference of the scale not given here; 340,000 tested, 0.43% active; response, % (concentration not given with the values);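 active = response above a set limit, near 3 SD of response in nonfluorescent compounds, cut at about 42% in these data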;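 also: stock transfer was 100 nL into about 11 µL; a reference agonist was the positive control; negative values mostly stem from fluorescent compounds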
LANA-H2A inh – blockers of LANA interaction with H2A/H2B – biochemical, FP readout, HTS, primary screen. Protein LANA1 (Human herpesvirus 8 type P (isolate GK18)), Q9QR71. inhibition, % (concentration not given with the values). AID 2629, 2010. 320,000 tested, 0.6% active. cell-free LANA-H2A/H2B peptide, fluorescence polarization; in the data active = inhibition mostly above about 10%, no sharp cut-off; inactive = mostly below about 6.7%;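 also: stock transfer was 7.5 nL into about 10 µL; 0% = median of vehicle wells and 100% = median of positive control wells; one replicate is shown; the record names a cut of 25% in any replicate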
Target sequence (Q9QR71 whole entry, looked up): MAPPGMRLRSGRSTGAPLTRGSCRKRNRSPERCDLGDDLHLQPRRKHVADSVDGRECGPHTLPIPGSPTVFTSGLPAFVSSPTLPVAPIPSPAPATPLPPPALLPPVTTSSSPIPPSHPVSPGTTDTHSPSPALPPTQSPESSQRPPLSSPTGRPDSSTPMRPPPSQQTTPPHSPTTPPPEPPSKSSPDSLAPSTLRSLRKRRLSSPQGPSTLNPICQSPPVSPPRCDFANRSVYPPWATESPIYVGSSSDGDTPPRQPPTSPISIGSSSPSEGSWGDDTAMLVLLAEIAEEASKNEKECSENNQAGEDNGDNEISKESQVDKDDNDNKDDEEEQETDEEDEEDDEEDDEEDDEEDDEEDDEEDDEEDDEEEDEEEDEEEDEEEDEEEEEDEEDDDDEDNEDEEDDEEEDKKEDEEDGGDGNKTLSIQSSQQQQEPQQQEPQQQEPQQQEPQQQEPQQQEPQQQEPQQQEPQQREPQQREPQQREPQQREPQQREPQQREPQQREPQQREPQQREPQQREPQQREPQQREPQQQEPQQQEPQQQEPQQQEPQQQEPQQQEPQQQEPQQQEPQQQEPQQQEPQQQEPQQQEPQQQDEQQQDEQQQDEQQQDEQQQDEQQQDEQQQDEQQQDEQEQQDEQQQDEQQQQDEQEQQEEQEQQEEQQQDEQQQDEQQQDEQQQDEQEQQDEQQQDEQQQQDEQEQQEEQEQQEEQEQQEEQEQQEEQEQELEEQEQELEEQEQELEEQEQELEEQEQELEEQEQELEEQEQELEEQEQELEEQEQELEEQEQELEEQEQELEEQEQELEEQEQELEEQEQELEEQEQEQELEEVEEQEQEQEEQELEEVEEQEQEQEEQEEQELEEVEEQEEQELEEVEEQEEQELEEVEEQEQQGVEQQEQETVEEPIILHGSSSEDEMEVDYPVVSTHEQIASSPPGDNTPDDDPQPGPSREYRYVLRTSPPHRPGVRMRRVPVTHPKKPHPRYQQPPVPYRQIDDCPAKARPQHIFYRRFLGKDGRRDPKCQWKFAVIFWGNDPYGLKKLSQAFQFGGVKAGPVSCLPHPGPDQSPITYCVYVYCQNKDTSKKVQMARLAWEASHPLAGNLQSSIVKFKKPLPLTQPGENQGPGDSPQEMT
Beta apoptosis – inhibitors of cytokine-induced beta cell apoptosis, primary screen, luminescence. INS-1E cytokine-induced death, ATP luminescence, 48 h; percent of positive-control rescue, neutral wells zero. protection from apoptosis, % (test concentration not listed). 300,000 tested, 0.8% active;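 active = all replicates at 75% or more, or half of them and the mean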;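 also: 0% = cytokine-treated negative control wells and 100% = positive control rescue; higher means more ATP so stronger rescue from cytokine killing; wells of about 40 µL received 100 nL stock; the first replicate is given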
Bfl-1 A1 inh – caspase 3/7 activation in MEF A1-2A-BIM cells, primary screen, A1 inhibitor project, cell-based, luminescence, HTS; Caspase-Glo 3/7 luminescence, 3 h; percent of clofoctol response, vehicle zero; caspase activation, % (no concentration beside the values); AID 2462, 2010; 330,000 tested, 0.066% active;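 active = over half of replicate activation scores above 10%, or exactly half above 10 with the replicate mean above 10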;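 also: wells of about 30 µL received 50 nL stock; many hits fall short of the cut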
ALR inh – inhibitors of human ALR sulfhydryl oxidase, primary screen, biochemical, H2O2 detection, HRP-luminol luminescence, single point; purified ALR, DTT oxidation; inhibition, % (no concentration beside the values); 290,000 tested, 3.8% active; AID 485317, 2010;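 active = mean and each replicate at 75% or more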;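 also: stock transfer was 7.5 nL into about 7.5 µL; 0% = neutral wells and 100% = wells with inactivated enzyme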
rRNA inh HTS – reduced GFP signal of wild-type E. coli, primary screen, bacterial rRNA inhibitor project, GFP/RFP fluorescence, OD600, single point. E. coli WT GFP vs humanized-ribosome RFP mutants, 24 h; hits give low values; DMSO median 0, no signal -100. GFP signal change (wild-type ribosome), % (no concentration beside the values). 350,000 tested, 1.6% active. AID 720706, 2013;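 active = significant combined selectivity score with lowered wild-type GFP, culture density cut under 30%, mutant RFP and density less affected; inactive = any of these conditions unmet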; also: one replicate is shown; some compounds called inactive have numbers as strong as hits
T cruzi inh – inhibitors of intracellular T. cruzi growth, primary screen, luminescence, NIH3T3 host cells; inhibition, % (test concentration not listed); 300,000 tested, 1.4% active; AID 1885, 2009; T. cruzi beta-gal in NIH3T3, 90 h;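 active = mean inhibition across valid replicates above about 55%, limit read from the data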;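 also: signal also drops with host cell toxicity which is not excluded here; 0% = plate median of DMSO wells and 100% = zero luminescence signal; higher percent means less beta-gal luminescence so fewer parasites; stock transfer was 50 nL into about 50 µL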
Calb FLC – C. albicans growth inhibition with fluconazole, primary screen, CaCi-2 strain, Alamar Blue fluorescence. 300,000 tested, 0.57% active. C. albicans CaCi-2 (fluconazole-resistant clinical isolate) + fluconazole, 48 h. growth inhibition, % (test concentration not listed);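 active = most replicates above 75%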;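 also: all wells also contain fluconazole at 8 µg/ml as a sub-toxic cotreatment; 0% = median of DMSO wells and 100% = median of geldanamycin control wells; wells of about 8 µL received 7.5 nL stock; the first replicate is given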
rRNA inh HTS OD600 – also measured in rRNA inh HTS; calls as there; OD600 change, %; measured here: OD600 growth;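 optical density of the mix in the first replicate; 0 = DMSO median and -100 = no signal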
rRNA inh HTS RFP – further read-out of rRNA inh HTS, marked with its call; RFP signal change, %; measured here: RFP humanized mutant strains;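 first replicate; 0 = DMSO median and -100 = no signal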
The depositor's hits bear a star; x = no result given.

SMILES | B2AR ag | LANA-H2A inh | Beta apoptosis | Bfl-1 A1 inh | ALR inh | rRNA inh HTS | rRNA inh HTS OD600 | rRNA inh HTS RFP | T cruzi inh | Calb FLC
COc1cc2c(cc1OC)C(c1ccc([N+](=O)[O-])cc1)N(C(C)=O)CC2 (centres undefined) | -7.3 | -1.5 | 6.2 | -0.1 | -2.2 | 1.9 | 8.5 | 1.1 | -10.5 | 5.7
COCCCNc1nc2c(c(=O)[nH]c(=O)n2C)n1CC(O)COc1ccccc1C (centres undefined) | -19.5 | 1.7 | x | 0.8 | 15.8 | 6.5 | 3.1 | 2.0 | 8.7 | 3.9
CCn1nnc(NC(=O)c2ccco2)n1 | 3.0 | 7.5 | 2.0 | -0.1 | -15.7 | -1.1 | 0.3 | -1.4 | -5.9 | 2.2
O=C(COC(=O)C1CC(O)CN1C(=O)Oc1ccccc1)c1ccc(Br)cc1 (centres undefined) | 4.9 | 3.8 | -3.5 | -0.4 | 1.6 | x | x | x | -3.3 | 5.6
COc1cccc(C(=O)NC(Cc2ccccc2)c2ccc3c(c2)OCCCO3)c1 (centres undefined) | -2.3 | 0.0 | -1.0 | 0.3 | -7.1 | 2.5 | 9.1 | 4.7 | 29.3 | -16.4
COc1ccc(C2CC(c3ccccc3)=NN2C(=O)COC(=O)/C=C/c2ccc(O)c(OC)c2)cc1 (centres undefined) | 2.9 | 0.4 | 8.3 | -0.1 | -5.6 | 6.1 | 12.0 | 5.7 | 34.2 | -2.3
COc1ccc(S(=O)(=O)N2CCOC23CCN(S(C)(=O)=O)CC3)cc1 | -4.7 | -4.9 | -1.1 | -0.4 | 0.3 | 1.5 | 3.9 | 1.1 | 1.0 | -3.2
O=C(NCc1cccnc1)C1CCN(S(=O)(=O)c2cc(Cl)ccc2Cl)CC1 | -2.8 | -4.0 | -5.4 | 0.4 | x | -2.9 | 0.8 | -0.2 | -4.3 | -11.9
CN(c1cccc(NC(=O)CN(c2ccc(C34CC5CC(CC(C5)C3)C4)cc2)S(C)(=O)=O)c1)S(C)(=O)=O | 6.8 | -10.5 | 51.2 | 1.2 | -3.1 | x | x | x | 65.3* | -7.3
O=C(O)/C=C/C(=O)Nc1ccc(-n2nccc2C(F)(F)F)cc1 | 0.3 | -3.7 | -14.0 | 0.6 | 0.3 | -4.0 | -0.2 | -5.4 | -7.3 | -4.8
CCSc1nnc(NC(=O)C2CC(=O)N(Cc3ccccc3)C2)s1 (centres undefined) | -1.6 | 1.9 | -15.0 | 0.4 | 0.7 | 7.1 | 8.4 | 1.9 | -3.6 | 2.8
CCOc1ccc(C(=O)NNC(=O)CCNC(=O)c2ccco2)cc1OC | -6.0 | -3.0 | -3.9 | 0.5 | -0.7 | 6.2 | 11.6 | -0.5 | -3.8 | 10.6
CC(C)CNS(=O)(=O)c1ccc(CCC(=O)NCC2CCCO2)cc1 (centres undefined) | 11.4 | 3.5 | -0.7 | -1.4 | -14.7 | x | x | x | -2.2 | 1.4
Cc1sc2nc(C)n(/N=C/c3ccc(O)cc3)c(=O)c2c1C | -6.4 | 3.0 | x | -0.1 | -34.4 | x | x | x | 0.1 | -41.4
CSc1nc(/C=C2\C=Nc3ccccc32)c(O)n1C | 0.1 | 0.1 | 4.0 | 0.6 | 85.4* | x | x | x | -16.2 | 6.4
Cc1cc(N2CCCC2)nc(N2C3CCC2CC(O)(c2ccc(F)cc2)C3)n1 (centres undefined) | x | 7.5 | -4.5 | 0.9 | x | x | x | x | 24.6 | -31.2
CN(CC(=O)Nc1c(Cl)cccc1Cl)C(=O)CNC(=O)c1ccc2ccccc2c1 | 34.3 | -3.3 | 4.5 | -0.8 | -4.9 | -9.0 | -12.7 | -2.2 | -6.7 | -3.4
O=C1Nc2ccccc2C12OCC(COc1ccc(Cl)cc1)O2 (centres undefined) | 11.8 | -3.8 | -4.0 | 0.2 | 7.5 | x | x | x | -10.5 | 21.9
CCOC(=O)C1=C(CNC2CCCCC2)NC(=O)NC1c1cc(C)ccc1C (centres undefined) | 10.2 | 5.2 | -3.9 | 0.4 | -0.5 | x | x | x | 5.9 | -10.8
O=S(=O)(Nc1cccc(-n2cnnn2)c1)c1cccc(Cl)c1 | 7.0 | -4.3 | -0.5 | 1.0 | -4.6 | -8.2 | -21.1 | 0.4 | -6.7 | 27.0
CC(C)(C)OC(=O)C[C@@H]1C/C=C\C[C@@H](CC(=O)N(CCO)Cc2ccccc2)C(=O)N2CCC[C@@H]2COC1=O | -9.4 | 1.2 | -6.2 | 0.5 | 2.0 | -1.4 | 7.8 | -1.5 | x | x
Cc1occc1C(=O)N/N=C/c1cccnc1 | -0.5 | -3.5 | 2.6 | -4.1 | -2.0 | 13.3 | 16.3 | 9.0 | -5.4 | 4.2
CCOc1cc(-c2cn(S(=O)(=O)c3cccc4nsnc34)nc2N)cc(OCC)c1OCC | -1.1 | -1.7 | 19.7 | 0.1 | -0.8 | x | x | x | 18.5 | 18.7
CCOC(=O)N1CCN(Cc2nnc(-c3cccc(Br)c3)o2)CC1 | -7.0 | 7.0 | 3.3 | -0.1 | -2.1 | 6.2 | 8.6 | 1.9 | -10.0 | 0.3
CCCc1nc(SCC(=O)Nc2ccc(N3CCOCC3)cc2)c2ccccc2n1 | -13.9 | 3.5 | -3.9 | -1.0 | 98.5* | x | x | x | 11.0 | 0.9
COc1cccc2c1OCC1COc3c(c(=O)n(C)c(=O)n3C)C21 (centres undefined) | 5.7 | 4.0 | -1.4 | 0.6 | 3.4 | x | x | x | -11.3 | -5.4
CCOC(=O)CCNC(C)C1COc2ccccc2O1 (centres undefined) | 0.6 | -1.0 | -5.0 | 0.2 | x | x | x | x | -1.0 | 8.8
CN(C(=O)CC1C(=O)NCCN1CC(c1ccccc1)c1ccccc1)C(C1CC1)C1CC1 (centres undefined) | 1.7 | 7.5 | -0.5 | -0.2 | -15.7 | -15.6 | -9.0 | 19.6 | 21.9 | -0.5
CCN(CC)S(=O)(=O)c1cccc(NC(=O)c2cc3ccccc3o2)c1 | 2.5 | 2.5 | -4.0 | -1.1 | -7.0 | x | x | x | 21.3 | 20.5
COc1ccc(-c2nc(CS(=O)CC(=O)NCc3ccc(Cl)cc3)c(C)o2)cc1OC (centres undefined) | 9.2 | 2.6 | -10.9 | -0.3 | 98.6* | -15.8 | -12.8 | 0.1 | 9.6 | 4.4
COc1ccc(C(=O)Oc2c(C)occc2=O)cc1OC | 0.7 | -0.7 | -4.3 | 0.0 | -5.9 | x | x | x | x | -2.2
CCN(CC)CCN1C(=O)c2ccccc2NC1c1ccc(Br)cc1 (centres undefined) | 12.0 | 0.1 | x | 0.0 | -2.3 | 10.4 | 4.3 | -2.1 | 33.9 | -33.7
CC(=O)Nc1ccc(C(=O)NCC(=O)OCc2ccccc2F)cc1 | 1.8 | 0.6 | -1.7 | 0.4 | -10.4 | 4.2 | -1.5 | -2.6 | 4.1 | -1.1
Cc1ccc(CN(Cc2ccccn2)C(=O)Nc2ccc(C)c(C)c2)cc1 | -11.4 | 3.7 | 10.6 | 0.3 | -1.6 | -8.9 | -29.6 | -0.4 | 11.6 | -1.6
O=C(O)C1(S(=O)(=O)CCC(F)=C(F)F)CC1 | 2.7 | -2.4 | -7.0 | 0.4 | -4.2 | 14.8 | 13.8 | 1.1 | -12.1 | 2.3
Cc1sc2ncn(CC(=O)NCCCOC(C)C)c(=O)c2c1S(=O)(=O)N1CCN(c2ncccn2)CC1 | -9.3 | -5.0 | x | -0.5 | -4.6 | 22.4 | 16.4 | 1.4 | -9.7 | 8.0
C#CCOCCOCCOCCNc1nc(N2CCN(C(=O)[C@H]([C@@H](C)CC)n3cc(CCCCN)nn3)CC2)nc(N2CCN(C(=O)[C@H](CCCCN)n3cc(CCC(=O)O)nn3)CC2)n1 | -0.8 | 0.0 | -4.1 | -0.4 | x | 5.2 | 13.6 | -0.5 | x | x
CCOc1ccc(/C(O)=C2/C(=O)C(=O)N(c3ccccn3)C2c2ccc(C)cc2)c(C)c1 (centres undefined) | -25.6 | -5.3 | -11.0 | 0.5 | -3.8 | 0.1 | 3.2 | -1.1 | -5.7 | -2.8
CCOc1ccc(-n2cc(C(=O)Nc3cccc(C)n3)c3cc(OC)c(OC)cc3c2=O)cc1 | 7.2 | -3.4 | 10.4 | -0.2 | -0.5 | 3.0 | 2.7 | 1.3 | 2.2 | 31.6
C=CCNc1nnc(SCC(=O)N2CCC(C(N)=O)CC2)s1 | 0.1 | 1.3 | x | -0.5 | -17.6 | 3.3 | 6.8 | 2.1 | -4.0 | -7.0
CCCSC1=C(C#N)C(c2ccc(OC)cc2)C2=C(CC(C)(C)CC2=O)N1 (centres undefined) | -8.2 | -0.2 | 5.9 | -1.0 | -5.6 | x | x | x | 10.4 | 2.7
CCCCNS(=O)(=O)/C=C/c1ccccc1 | -0.7 | -2.3 | x | -0.2 | 4.1 | x | x | x | -5.0 | -3.0
CCc1nc(C)cn1S(=O)(=O)c1cc(Cl)c(OC)cc1Cl | 1.6 | 0.4 | -5.3 | 0.0 | -1.9 | x | x | x | 4.9 | 3.5
O=C(Nc1ccccc1Cl)C1CCCN1C(=O)OCc1ccccc1 (centres undefined) | 5.3 | 14.2 | -1.8 | 1.0 | -4.6 | -0.1 | 3.7 | -0.2 | -1.6 | 4.0
O=C(NCC1CCCO1)C1c2ccccc2C(=O)N1C1CCCCCC1 (centres undefined) | 0.1 | -0.2 | 9.2 | -0.8 | -0.3 | 9.7 | 2.8 | -2.1 | -3.6 | 2.1
NS(=O)(=O)c1ccc(N/N=C/c2cn(-c3ccccc3)nc2-c2ccccc2)c([N+](=O)[O-])c1 | 81.0* | 3.7 | 91.1* | 5.8* | -20.2 | 12.0 | 5.1 | 4.7 | 39.5 | -7.3

Screens as filed in PubChem BioAssay.

These rows are one share of the data (hit frequency here may not be typical).
